Bioassay records from PubChem BioAssay.
Hsc70 – Hsc70 inhibitors, probe displacement, primary screen, biochemical, fluorescence polarization (AID 568) | displacement, % at 20 µM; hits with a dose series show IC50 in µM | Hsc70 fluorescence polarization, probe displacement; higher % means a stronger effect; strong numbers were not always called active | Heat shock cognate 71 kDa protein (Homo sapiens) | 83,000 tested, under 10 active;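 active means displacement above 50% without optical interference and an IC50 on retest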;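 further: ATPase domain with a fluorescein-tagged ATP probe; 0% = vehicle and 100% = excess ADP; read after one hour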
WNV protease inh – inhibitors of WNV NS2B-NS3 protease, primary screen, biochemical, fluorogenic substrate; fluorogenic substrate Ex360/Em465; hits give low values; z-score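 (tested at a level between 10 and 100 µM)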; Genome polyprotein (West Nile virus), P06935; AID 577, 2007; 65,000 compounds, 0.18% hits;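 active means z-score at -3 or under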;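 further: score is relative to mean and spread of the compound wells of a plate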
Target sequence (P06935 1371-1501 limits assumed): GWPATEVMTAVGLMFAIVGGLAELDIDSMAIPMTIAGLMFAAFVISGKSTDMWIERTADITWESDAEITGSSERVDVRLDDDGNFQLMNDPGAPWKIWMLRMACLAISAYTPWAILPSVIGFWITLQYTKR
Target sequence (P06935 1502-1679 limits assumed): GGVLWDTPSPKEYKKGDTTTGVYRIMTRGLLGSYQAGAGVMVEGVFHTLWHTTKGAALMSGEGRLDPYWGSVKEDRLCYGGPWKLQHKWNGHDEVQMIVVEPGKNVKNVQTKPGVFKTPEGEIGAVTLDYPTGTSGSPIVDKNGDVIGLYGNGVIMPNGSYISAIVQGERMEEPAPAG
MT1-MMP reporter – inhibitors of MT1-MMP promoter transcription, cell-based, luciferase reporter, luminescence (AID 618) | MT1-MMP promoter luciferase reporter cells, luminescence | calls from a first round at 10 µM; hits with a dose series show EC50 in µM | 87,000 compounds, 0.62% hits;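 active means over half of the reporter light lost at 10 µM or EC50 under 50 µM; inactive means the rest and hits that failed the dose series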;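 further: actives suppress MT1-MMP promoter-driven transcription so potencies describe inhibitors; HT1080 fibrosarcoma cells; overnight exposure; toxic or luciferase-blocking compounds were not removed from the actives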
An asterisk follows results filed as active; i = inactive; · = no result given.

SMILES | Hsc70 | WNV protease inh | MT1-MMP reporter
Cc1ccc(S(=O)(=O)N2C(=O)CCC2C(=O)Nc2ccc3c(c2)OCCO3)cc1 (centres undefined) | 1.6% | 0.52 | i
CN(C1CCS(=O)(=O)C1)S(=O)C12CC3CC(CC(C3)C1)C2 (centres undefined) | -3.8% | -0.15 | i
Cc1cc2c(nn1)CCC/C2=N\O | -0.1% | -0.01 | i
COc1ccccc1COCC(O)CNCC1(N2CCCCC2)CCCCC1 (centres undefined) | -1.1% | -1.4 | i
COc1ccc(NC(=O)c2cc(S(=O)(=O)N3CCCCC3)ccc2N2CCCCC2)cn1 | -0.2% | 1.4 | i
COc1ccc(CN2C(=O)CCC2(C)C(=O)NC2CCCCCC2)cc1 (centres undefined) | 2.7% | 0.15 | i
CCC(c1nnnn1Cc1cccs1)N1CCN(C2CCCC2)CC1 (centres undefined) | -2.7% | -0.77 | i
Clc1ccc2c(Cl)c(-c3nnc(-c4ccccc4)o3)sc2c1 | -2.7% | · | i
CCCC(=O)Nc1nnc(SCC(=O)NCc2cccs2)s1 | -2.1% | · | i
O=C(CC1Sc2ccccc2NC1=O)OCC(=O)N1CCc2ccccc21 (centres undefined) | -0.4% | 1.9 | i
Cc1ccc(F)cc1NC(=O)c1ccc2c(c1)OCO2 | 3.3% | -0.6 | i
COC(=O)C1=C(C)N(C)C(C)=C(C(=O)OC)C1c1cccc(Br)c1 | 0.2% | 0.62 | i
CCOC(=O)C1CCCN(Cc2nc(N)nc(Nc3ccccc3)n2)C1 (centres undefined) | 5.9% | -0.01 | i
COC(=O)c1ccccc1NC(=O)Cn1cc2c(n1)CCC(C)C2 (centres undefined) | 4.0% | 0.49 | i
CCOc1ccc(C(C)(O)CN2CCOCC2)cc1 (centres undefined) | -5.1% | · | i
COc1cccc(C2CC(c3ccc(Cl)cc3Cl)Nc3nc(N)nn32)c1 (centres undefined) | -2.9% | -1.8 | i
COc1ccc(-c2cc(C(=O)O)c3ccccc3n2)c(OC)c1 | -2.2% | -0.35 | i
O=C(O)C1CCC(N2C(=O)C3CCCCC3C2=O)CC1 (centres undefined) | -5.8% | · | i
C=CCn1c(SC2CCOC2=O)nc2sc(C)c(C)c2c1=O (centres undefined) | -3.4% | · | i
Cc1cccc2c1CC(C)(C)N=C2C1=C(O)CCCC1=O | -4.0% | -0.91 | i
COc1ccc2ccccc2c1C1CC(=O)N2CN(C)CSC2=C1C#N (centres undefined) | -6.2% | -0.55 | i
CC(NC(=O)c1ccc2c(c1)OCO2)C(c1cccs1)N1CCOCC1 (centres undefined) | 3.0% | -0.22 | i
O=C1CC(c2ccccc2)CC(O)=C1C=NCc1ccco1 (centres undefined) | -1.3% | -1.1 | i
O=C1CCCC/C1=C/Nc1ccc(C(=O)O)cc1 | -2.2% | · | i
O=c1c2[nH]c3ccc(F)cc3c2ncn1CCN1CCOCC1 | 3.0% | -1.4 | i
The results go on:
SMILES | Hsc70 | WNV protease inh | MT1-MMP reporter
COc1ccc(-c2cc(=O)n(-c3nc4ccccc4[nH]3)[nH]2)cc1 | 0.3% | 1.8 | i
Cc1n[nH]c(=O)nc1NCc1ccco1 | 9.4% | -0.26 | i
COC(=O)c1ccccc1NC(=O)CN1CCC(n2nnc3cc(F)ccc32)CC1 | -4.7% | -0.48 | i
COc1ccc(C2N=C(Nc3ccc(C)cc3)Nc3nc(C)cc(=O)n32)cc1 (centres undefined) | 3.9% | -0.32 | i
O=C(CCCN1C(=O)c2ccccc2C1=O)N1CCC(c2ccccc2)C1 (centres undefined) | -0.1% | -0.63 | i
Cn1nnnc1SCC(=O)NCCc1ccc(Cl)cc1 | 0.2% | -0.78 | i
CC(C)CC(OC(=O)c1ccco1)C(=O)NC1CCCCC1 (centres undefined) | -2.0% | -0.38 | i
O=C1CC(c2ccco2)Cc2nc(Nc3nc(-c4ccccc4)c4ccccc4n3)ncc21 (centres undefined) | 5.6% | -0.77 | i
C=C(C)CSC1=C(C#N)C(c2ccsc2)CC(=O)N1 (centres undefined) | 3.0% | 0.6 | i
CCN1CCN(S(=O)(=O)c2cccc3nsnc23)CC1 | 0.9% | · | i
CCOC(=O)c1nc(N2CCN(C(=O)OCC)CC2)c2c3c(sc2n1)CCCC3 | -0.9% | -0.68 | i
COC(=O)c1cc(NC(=O)C2CC=CCC2C(=O)O)cc(C(=O)OC)c1 (centres undefined) | 7.0% | -0.57 | i
c1ccc2c(c1)[nH]c1c(N3CCOCC3)ncnc12 | -2.7% | -0.48 | i
Cc1cc(C2C(C#N)=C(N)Oc3n[nH]c(C)c32)c(C)s1 (centres undefined) | 1.6% | · | i
CCOC(=O)Cn1c2c(c(=N)c3ccccc31)CCC2 | 2.2% | 0.76 | i
Cc1nc2cc(-c3cccs3)[nH]n2c(=O)c1C | 3.1% | · | i
CN(C)c1nc(Nc2ccc(Cl)cc2)nc(OCC#N)n1 | 0.9% | -0.29 | i
CCC(=O)Nc1ccc(Oc2ccc3c(c2)C(=O)NC3=O)cc1 | 0.2% | -0.31 | i
COc1ccccc1N(CN1CCCC1=O)C(=O)c1c(F)cccc1Cl | 2.8% | 0.34 | i
Cc1ccc(-c2nn(C)c(=O)c3ccccc23)cc1CNC(=O)CN1CCOCC1 | 5.2% | -0.31 | i
CCOc1ccccc1N1CCN(Cc2cccc(OC)c2O)CC1 | 2.1% | -1.1 | i
CCc1nc2c(n1O)CCc1nonc1-2 | -0.1% | -0.61 | i
Cc1ccc(-c2cc(C(=O)Nc3c(C#N)cnn3C)no2)cc1 | -1.3% | -0.2 | i
CCC(c1nnnn1Cc1ccco1)N1CCN(C(=O)c2ccco2)CC1 (centres undefined) | 0.4% | 1.5 | i
CCN(CC)c1ccc(NC(=O)c2ccco2)c(C)c1 | -6.4% | -0.1 | i
Next results
SMILES | Hsc70 | WNV protease inh | MT1-MMP reporter
CCc1c(C)nc2ncnn2c1N1CCC(C(=O)NCc2cccc(OC)c2)CC1 | -0.6% | 0.29 | i
O=S(=O)(CCc1nc2ccccc2o1)c1ccc(Cl)cc1 | -0.5% | 0.84 | i
O=C(Nc1cnc2sccn2c1=O)c1ccccc1Cl | -1.8% | -1.4 | i
O=C(c1ccccc1)N1CCCCC(Sc2nnc3ccccn23)C1=O (centres undefined) | 8.1% | 0.8 | i
COc1ccccc1-c1coc2c(CN3CCN(C)CC3)c(O)ccc2c1=O | -1.9% | 0.67 | i
COc1ccc(C2C(C(=O)NCc3ccccn3)c3cc(OC)c(OC)cc3C(=O)N2C)cc1 (centres undefined) | -1.6% | -0.42 | i
O=C(CN1CCN(C2CCCCC2)CC1)c1c[nH]c2ccccc12 | -1.3% | · | i
O=C(NC12CC3CC(CC(C3)C1)C2)C1CC(=O)N(c2ccc(Br)cc2)C1 (centres undefined) | 2.7% | · | i
CCN(CC)CCN(Cc1cc2cc3c(cc2[nH]c1=O)OCCO3)C(=O)NC1CCCCC1 | -1.1% | -0.51 | i
O=C(CN1C(=O)NC(Cc2ccccc2)C1=O)Nc1ccc(F)cc1 (centres undefined) | -2.2% | 0.47 | i
Cn1nnnc1Sc1ncnc2scc(-c3ccc(F)cc3)c12 | -7.6% | -0.42 | i
COc1cc2[nH]c(=S)n(CCN3CCOCC3)c(=O)c2cc1OC | -0.2% | -0.2 | i
O=C(Nc1ccc(Oc2ccccc2)cc1)C1CCN(c2ncccn2)CC1 | 2.7% | -0.05 | i
CCOC(=O)CSc1nc(C)cc(Oc2ccc(=O)n(C)n2)n1 | 1.2% | -0.54 | i
CCCC(C)C(=O)NCc1ccccc1OC (centres undefined) | -0.6% | 1.9 | i
Nc1nc2ccccc2n1/N=C/c1ccc(-c2ccccc2)o1 | -4.6% | -1.2 | i
CCSC1=N/C(=C\c2ccc3c(c2)OCO3)C(=O)S1 | 5.1% | · | i
CC(=O)NCCc1cc2ccc(C)c(C)c2[nH]c1=O | 4.7% | -0.82 | i
Cc1oncc1-c1cn2ccccc2n1 | -2.2% | · | i
Cc1nnc(SCCn2c(N3CCN(C)CC3)nc3c2c(=O)[nH]c(=O)n3C)s1 | 1.4% | 0.3 | i
O=C(Cn1cccc1)NCc1cccs1 | 2.9% | -0.11 | i
Cc1ccc(NCC(O)C(O)C(O)CO)cc1C (centres undefined) | 2.9% | -0.65 | i
c1ccc(-c2cc3c(N4CCOCC4)ncnc3s2)cc1 | -6.5% | -0.53 | i
CCOC(=O)CN(C(=O)CSc1nnc2c(n1)[nH]c1ccc(OC)cc12)c1ccc(F)cc1 | 0.1% | -0.07 | i
CS(=O)(=O)c1ccc2nc(NC(=O)CC3CCCC3)sc2c1 | -3.6% | -0.34 | i

Part of the list above in order of molar mass, highest first:
SMILES | Hsc70 | WNV protease inh | MT1-MMP reporter
COc1cc2[nH]c(=S)n(CCN3CCOCC3)c(=O)c2cc1OC | -0.2% | -0.2 | i
CCOC(=O)CSc1nc(C)cc(Oc2ccc(=O)n(C)n2)n1 | 1.2% | -0.54 | i
COC(=O)c1ccccc1NC(=O)Cn1cc2c(n1)CCC(C)C2 (centres undefined) | 4.0% | 0.49 | i
CCN1CCN(S(=O)(=O)c2cccc3nsnc23)CC1 | 0.9% | · | i
O=C1CC(c2ccccc2)CC(O)=C1C=NCc1ccco1 (centres undefined) | -1.3% | -1.1 | i

Reprinted from the results shown for reference:
SMILES | Hsc70 | WNV protease inh | MT1-MMP reporter
O=C(Cn1cccc1)NCc1cccs1 | 2.9% | -0.11 | i
Cc1ccc(NCC(O)C(O)C(O)CO)cc1C (centres undefined) | 2.9% | -0.65 | i
c1ccc(-c2cc3c(N4CCOCC4)ncnc3s2)cc1 | -6.5% | -0.53 | i
CCOC(=O)CN(C(=O)CSc1nnc2c(n1)[nH]c1ccc(OC)cc12)c1ccc(F)cc1 | 0.1% | -0.07 | i
CS(=O)(=O)c1ccc2nc(NC(=O)CC3CCCC3)sc2c1 | -3.6% | -0.34 | i

Other results follow:
SMILES | Hsc70 | WNV protease inh | MT1-MMP reporter
COc1ccc(S(=O)(=O)NC(C(C)C)C(C)C)cc1OC | 0.0% | 0.42 | i
CC1=C(C)C(=O)N(CCC(=O)O)C1=O | 0.5% | 0.2 | i
CCOC(=O)c1cc2c(=O)n3cccc(C)c3nc2n(CCOC)c1=NC(=O)c1ccncc1 | 0.1% | -0.74 | i
COc1ccc(OC)c(-n2c(C)ccc2-c2ccc(S(C)(=O)=O)cc2)c1 | -1.4% | · | i
O=C(Cn1nnc(-c2ccc(Cl)cc2)n1)NCCC1=CCCCC1 | -3.8% | 0.58 | i
Cn1c(=O)c2c(nc(CN3CCOCC3)n2CC(O)CO)n(C)c1=O (centres undefined) | 2.2% | -0.2 | i
Nc1nonc1-c1nc2ccccc2n1Cc1ccc(F)cc1Cl | -35% | 0.19 | i
CCCCP(=O)(CCCC)c1ccccc1C(=O)O | 4.7% | -0.84 | i
COc1ccccc1N1CCN(CC(=O)NCC2CCCO2)CC1 (centres undefined) | -0.6% | · | i
Nc1nncn1C(=O)CCCN1C(=O)c2ccccc2C1=O | 2.6% | 0.94 | i
COc1cc(/C=c2\sc3n(c2=O)CCCN=3)ccc1O | -5.2% | · | i
O=S(=O)(Nc1ccn(-c2ccccc2)n1)c1ccc(Br)cc1 | 3.0% | -0.09 | i
Cc1ccc(S(=O)(=O)NCc2ccc(C(=O)NCCCN3CCN(C)CC3)cc2)cc1 | -0.6% | -0.12 | i
Cc1nc(-c2coc3cc(O)c(C)cc3c2=O)cs1 | 3.4% | · | i
CSc1ccc(CN(C)CC(=O)NC(=O)NC(C)(C)C)cc1 | 3.0% | -0.35 | i
COc1ccc(C2C(C(=O)Nc3cccc(C)n3)c3ccccc3C(=O)N2C)cc1OC (centres undefined) | 4.1% | 0.25 | i
CSc1nc2sc3c(c2c(=O)[nH]1)CCC(C)C3 (centres undefined) | -4.1% | -0.09 | i
COc1ccc(NC(=O)c2ncn[nH]2)cc1 | 1.7% | · | i
CCC(=O)Nc1sc(C(=O)N2CCCCC2)c(C)c1C#N | 3.2% | 1.2 | i
COC(=O)c1cc(OC)c(OC)cc1NC(=O)c1oc2ccccc2c1C | 2.9% | -0.33 | i
CCCCNS(=O)(=O)c1ccc(S(=O)(=O)NCc2ccncc2)cc1 | -0.3% | · | i
CCOC(=O)CCCNC(=O)COC(=O)c1cc2ccccc2cc1O | 5.1% | · | i
OC(CN1c2ccccc2Sc2ccccc21)Cn1nnc2ccccc21 (centres undefined) | 3.8% | -0.64 | i
CCCNC(=O)NC(C(=O)OC)C12CC3CC(CC(C3)C1)C2 (centres undefined) | -5.9% | -0.64 | i
O=c1[nH]c(CN2CCN(c3ccc([N+](=O)[O-])cc3)CC2)nc2ccsc12 | 1.7% | · | i
Fc1cnc(N2CCOCC2)nc1N1CCc2ccccc21 | 3.4% | -0.12 | i
COc1cc(NC(=O)NCc2ccncc2)cc(OC)c1OC | -5.4% | -0.78 | i
Cc1[nH]nc2c1C(c1ccc(F)cc1)C1=C(CC(C)(C)CC1=O)N2 (centres undefined) | 1.0% | 1.1 | i
Cc1ccc(C(=O)C2(C)C3c4cc(Br)ccc4OC(=O)C32C(=O)c2ccco2)cc1 (centres undefined) | -6.4% | · | i

In the list so far, 4 have bromine.
SMILES | Hsc70 | WNV protease inh | MT1-MMP reporter
COC(=O)C1=C(C)N(C)C(C)=C(C(=O)OC)C1c1cccc(Br)c1 | 0.2% | 0.62 | i
O=C(NC12CC3CC(CC(C3)C1)C2)C1CC(=O)N(c2ccc(Br)cc2)C1 (centres undefined) | 2.7% | · | i
O=S(=O)(Nc1ccn(-c2ccccc2)n1)c1ccc(Br)cc1 | 3.0% | -0.09 | i
Cc1ccc(C(=O)C2(C)C3c4cc(Br)ccc4OC(=O)C32C(=O)c2ccco2)cc1 (centres undefined) | -6.4% | · | i
